Anthrax LT inh – qHTS Assay for Anthrax Lethal Toxin Internalization; Cells, anthrax lethal toxin internalization, FRET ratio (460/530); Potency, µM (titrated, usually from 40 µM), inactives show top-dose activity change, negative = inhibition, actives largely listed as inhibitors; hit rate 0.67% among 70,000; active = well fitted falling ratio curve with the 530 nm signal flat; inconclusive = other ratio curves, or a change in one channel alone; inactive = flat curves in the ratio and both channels; the % refers to the ratio; also: % is scaled to controls: 0 for no effect and ±100 for the full control effect; nearly all actives have a fitted effect of over 50% in size; tested in ME-180 cells; beta-lactamase reporter
Prx2 Sm inh – Schistosoma Mansoni Peroxiredoxins (Prx2); hit rate 0.07% among 65,000; Schistosoma mansoni peroxiredoxin 2 (Prx2); S. mansoni Prx2 activity coupled to TGR/GSH (TGR is thioredoxin glutathione reductase), NADPH fluorescence loss, qHTS; some inactives read as strong as hits; Potency, µM; AID 448, 2006; active means full or partial inhibition curve with a strong effect at the top dose; inconclusive means weaker partial or single-point curve; inactive means no accepted curve; also: series up to 57 µM; many of its hits are not listed in these tables
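Prx2 inhibition was measured as reduced NADPH consumption when electrons flowed from NADPH through TGR and glutathione to Prx2 and H2O2. Plates were read kinetically over 8 min; enzyme reagents were held at 4 deg C during dispensing.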
Active calls of the source: *; ? = inconclusive; · = no result given; & = joins results of further samples; [ ] = dose if it differs, or a comment. Potency is read from the fitted curve at half-maximal effect.

SMILES	Anthrax LT inh	Prx2 Sm inh
CC1CC(C(F)(F)F)n2ncc(C(=O)O)c2N1 (centres undefined)	?	>57
CCCOc1ccc([C@@H]2C3CN(C(=O)OCC)CC=C3C(C#N)=C(N)C2(C#N)C#N)cc1OC (some centres undefined)	?	>57
O=C(COc1ccccc1)Nc1cccc(-c2nnc(-c3ccccc3)o2)c1	10µM*	>57
CN(Cc1ccccc1)Cn1ccnc1	-8.4%[8 µM]	>57
CCN1C(=O)[C@H]2[C@@H]3[C@H](O)C=CC(=O)[C@H]3CC[C@H]2C1=O	?	·
C/C=C/OC(=O)NC(c1cccc(C)c1)[C@@]1(C(=O)OCC)CCCC1=O (some centres undefined)	-5.3%[8 µM]	·
c1cc2nncn2nc1N1CCCC1	-7.7%	>57
COCC(=O)N1CCC[C@@]2(CCN(Cc3ccc(C#N)cc3)C2)C1	?	>57
COC(=O)c1ccc(Oc2nc3c(c(=O)n(C)c(=O)n3C)n2CCC(C)C)cc1	-3.3%	>57
CCSc1nnc(NC(=O)CSc2nc3c(c(=O)n2C)SC(C)C3)s1 (centres undefined)	-3.2%	>57
CCCS(=O)(=O)c1c(S(=O)(=O)CCC)c2cc(CC)ccn2c1C(=O)OC	3.4%	>57
CC(C)COc1cccc(C(=O)Nc2ccc(S(=O)(=O)N3CCOCC3)cc2)c1	-26.0%	·
COc1ccc(OC)c(C2C(C(=O)c3cccs3)=C(O)C(=O)N2CCN(C)C)c1 (centres undefined)	-5.4%	>57
Cc1ccc(CNC(=O)C2c3ccccc3C(=O)N(C)C2c2c[nH]c3ccccc23)o1 (centres undefined)	·	>57
CN(Cc1cnc2nc(N)nc(N)c2n1)c1ccc(C(=O)N[C@H](CCC(=O)O)C(=O)O)cc1	1.3%[3.58 µM]	>57&>25.6&>57
Fc1ccc(Cn2nnnc2CN2CCN(C3CCCCC3)CC2)cc1	2.0%	>57
CC1CCc2c(nc3ncnn3c2N2CCN(c3ccccc3F)CC2)C1 (centres undefined)	-12.6%	>57
COc1cc(C(Nc2ccccn2)c2ccc3ccc(C)nc3c2O)cc(OC)c1O (centres undefined)	?	>57
CCc1nnc(NCC(=O)N2CCc3ccccc32)s1	2.8%	>57
Nc1nc(-c2cccc(NS(=O)(=O)c3ccccc3)c2)cs1	5.4%	>57
NCC[Se][Se]CCN	0.0794µM*	>57
CC1CCCCC1NC(=O)Cn1ncc2ccccc21 (centres undefined)	-10.5%	>57
O=C(CC(C(=O)N1CCc2ccccc21)n1ccnc1)N1CCc2ccccc2C1 (centres undefined)	6.9%	>57
CCc1ccc(OCc2ccc(C(=O)NCc3ccccn3)o2)cc1	8.3%	>57
CC(=O)c1c(C)[nH]c(C(=O)NCCN2CCC(C)CC2)c1C	-9.6%	>57
The results go on.
SMILES	Anthrax LT inh	Prx2 Sm inh
COc1cccc(Cn2c(=O)c(-c3cccs3)nc3cnc(Nc4ccccc4)nc32)c1	?	>57
O=C(CSc1ncn(-c2ccccc2)n1)N1CCc2ccccc21	-1.7%	>57
Cc1ccc(/C(C#N)=C/c2cccc([N+](=O)[O-])c2)cc1	?	>57
O=C(CSc1nnc(COc2ccc(Cl)cc2)o1)N1CCN(c2ccccc2)CC1	?	>57
O=C(Oc1cccc2cccnc12)c1cccs1	?	>57
O=C1C2CCCN2C(c2cccnc2)N1c1cccc(Cl)c1 (centres undefined)	2.6%	>57
COc1cccc(-c2nnn(CCC(=O)O)n2)c1	-8.8%	>57
CC(=O)Nc1ccc(NC(C)=O)s1	1.7%	·
COc1ccccc1CC(=N)N1C[C@@H]2C(=O)CCC(c3ccccc3)(c3ccccc3)[C@@H]2C1	?	>57
O=[N+]([O-])c1ccccc1N=Nc1c(O)[nH]c2ccc(S(=O)(=O)O)cc12	1.0%[8 µM]	>57
Cc1noc(C)c1CSc1nnc(-c2ccccc2)n1Cc1ccco1	-16.8%	>57
COc1cc(C(=O)Nc2ccc3c(c2)OCO3)ccc1-n1cnnn1	-19.9%	>57
Cc1cc(Br)ccc1OCc1nc(-c2cccnc2)no1	-10.0%	>57
Cc1nc(N)nc2ccccc12	2.6%[8 µM]	>57
COc1cc2cc(CN(CCN3CCCC3)C(=O)Nc3ccccc3Cl)c(=O)[nH]c2cc1OC	3.5%	>57
COc1ccccc1NC(=O)CSc1nc2ccccc2c(=O)n1CCNC(C)=O	?	>57
CCCCN(C)C(=O)CCCCn1c(=O)[nH]c2cc(OCC)c(OCC)cc2c1=O	20.6%	>57
COc1cccc(N2CCN(Cc3coc4c(Cl)cc(Cl)cc4c3=O)CC2)c1	-17.1%	·
O=C(c1ccco1)N1CCC2(CC1)CN(c1ccccn1)C2	-12.0%	>57
CCN(Cc1ccccc1)C(=O)CSc1nc(C)cc(C)c1C#N	-15.8%	>57
Nc1cccc(OCc2nc(N)nc(N)c2-c2ccc(Cl)cc2)c1	-2.4%[8 µM]	>57
CS(=O)(=O)N1CCC2(CCN(c3ccncc3)CC2)CC1	?	>57
COc1cc(C)c(C#N)c(OC)n1	2.5%	>57
CC12/C(=N/O)C3C4CC5C3/C(=N/O)C1C5C42 (centres undefined)	-0.8%	>57
CCCc1nnc(NC(=O)Cn2c(=O)oc3ccccc32)s1	8.6%	>57

4 consecutive compounds already listed, for reference:
SMILES	Anthrax LT inh	Prx2 Sm inh
CS(=O)(=O)N1CCC2(CCN(c3ccncc3)CC2)CC1	?	>57
COc1cc(C)c(C#N)c(OC)n1	2.5%	>57
CC12/C(=N/O)C3C4CC5C3/C(=N/O)C1C5C42 (centres undefined)	-0.8%	>57
CCCc1nnc(NC(=O)Cn2c(=O)oc3ccccc32)s1	8.6%	>57

(more compounds)
SMILES	Anthrax LT inh	Prx2 Sm inh
COCCNC(=O)[C@@]1(C)C=C[C@@H](Cc2ccccc2)N1C(=O)c1ccccc1	-1.9%	·
O=C(OCc1nnc(-c2ccccc2)o1)c1ccc2ccccc2n1	0.7%	>57
Cc1cccc(NC(=O)c2cc(NC(=O)C3CC=CCC3C(=O)O)ccc2N2CCOCC2)c1 (centres undefined)	-3.1%	>57
Cc1nc2ncnn2c(N2CCCC(C(=O)Nc3ccc4c(c3)CCC4)C2)c1C (centres undefined)	-25.0%	>57
O=C(Cn1cnc2c(nnn2Cc2ccccc2F)c1=O)NCC1CCCO1 (centres undefined)	-33.3%	>57
NCC(=O)NC1(C(=O)O)CCCC1	-9.6%[8 µM]	>57
CCOc1ccc(NC(=O)COc2nsnc2N2CCCCC2)cc1	-7.9%	>57
COc1ccc2c(c1OC)C(=O)N1c3cccc(Cl)c3C(=O)OC21 (centres undefined)	2.0%	>57
O=C(CC1CCCCC1)NCCCN1CCOCC1	?	·
CCOC(=O)N1CCN(C(=O)c2ccc(CNS(=O)(=O)c3ccc(OC)cc3)cc2)CC1	16.1%	>57
O=C(NCc1ccc(Cl)cc1)c1noc2c1CCCC2	-13.7%	>57
N#Cc1nc(-c2cccc3ccccc23)oc1NCCN1CCOCC1	?	>57
Cc1c(C(=O)Nc2ccc3c(c2)OCO3)sc2nc(-c3ccccc3)cn12	-6.8%	>57
CCOCC(=O)Nc1ccc(S(=O)(=O)Nc2ncccn2)cc1	7.1%	>57
CCCCCn1ccc(=N)cc1	-17.4%	>57
COc1ccc(NC2C=CS(=O)(=O)C2)c(OC)c1 (centres undefined)	10.1%	>57
COc1ccc(OCCSc2nnc(-c3ccccc3)n2N)cc1	-22.6%	>57
CCN(CC)C(=O)c1c[nH]c2ccc(S(=O)(=O)Nc3cc(C)cc(C)c3)cc2c1=O	?	>57
O=Cc1ccc(B(O)O)cc1	?	·
O=S(=O)(NCc1cccs1)c1cccc2cccnc12	2.3%	?
C=CCSC[C@@H]1Nc2cc(Cl)c(S(N)(=O)=O)cc2S(=O)(=O)N1	-27.7%[3.58 µM]	>57
CN(C)C(=O)Oc1ccc(OC(=O)N(C)C)cc1	-1.5%	·
CC1N/C(=C\C(=O)c2ccccc2)N(O)C1(C)C (centres undefined)	0.0%	>57
c1ccc(CC2CCN(c3nnnn3-c3ccccc3)CC2)cc1	-4.3%	>57
Cc1ccc(NC(=O)COS(=O)c2ccc(C)cc2)cc1 (centres undefined)	-0.4%	>57
Additional compounds:
SMILES	Anthrax LT inh	Prx2 Sm inh
COc1cccc2cc(C(=O)N3CCc4ccccc43)c(=O)oc12	9.7%	>57
COc1ccc(C2C(C(N)=O)=C(C)Nc3nc(-c4ccccc4)nn32)cc1OC (centres undefined)	1.3%	>57
CC(Sc1nnnn1C)C(=O)Nc1ccccc1-c1ccccc1 (centres undefined)	-3.4%	>57
N#Cc1c(SCC(=O)N2CCOCC2)nsc1SCC(=O)N1CCOCC1	-7.4%	·
COc1ccc2c(c1)c1nc(SCC(C)C)n(CCO)c(=O)c1n2C	0.0%	>57
CC(C)COP(=O)(c1ccc(N(C)C)cc1)C(O)c1ccccc1F (centres undefined)	-3.7%	>57
c1ccc(CCn2nnnc2C(c2cccs2)N2CCOCC2)cc1 (centres undefined)	-9.5%	>57
Nc1nc(SCc2ccccc2[N+](=O)[O-])c2[nH]cnc2n1	?	>57
COc1cccc(NC(=O)c2cn(C)c(=O)c3cc(OC)c(OC)cc23)c1	-9.3%	>57
Cc1cc(C)n(-c2nc3c(c(=O)[nH]c(=O)n3C)n2C(C)C)n1	8.4%	>57
COc1ccc2c3c(cccc13)OCC2=O	-5.9%	>57
CCOC(=O)c1c2c(n3ccccc13)C(=O)c1ccccc1C2=O	-1.6%[8 µM]	>57
N/C(=N\S(=O)(=O)c1cccs1)c1ccccc1	-10.9%	>57
CN1CCN(/C=N/c2c(C#N)cnn2-c2ccccc2)CC1	6.4%	>57
CC12CCC(=O)N1C(C(=O)OCC(=O)Nc1sccc1C#N)CS2 (centres undefined)	-14.4%	>57
CCOC(=O)CSc1nc(N)c(C#N)c(-c2ccc(OCC)cc2)c1C#N	?	>57
Cc1nn(Cc2ccccc2)c(C)c1NC(=O)CSc1nnc(-c2cc(Cl)ccc2O)n1C	?	>57
Cc1cc(C)cc(-n2cc3c(=O)n(C)c(=O)n(C)c3c2)c1	15.2%	>57
CSc1cccc(NC(=O)c2c(Cl)cnn2C)c1	-7.3%	>57
Cc1nc2ccccc2c(=O)n1/N=C/c1ccc(N(C)C)cc1	-5.9%	>57
c1ccc2nc3c(nc2c1)[nH]c1ccccc13	28.6%	>57
O=C(O)c1ccc(-c2ccc(O)c(F)c2)cc1	-1.3%	>57
Cc1ccc(CNC(=O)CCS(=O)(=O)c2cccc3nonc23)cc1	12.1%	>57
CCOC(=O)CC(=O)Nc1ccc(C(=O)OCC)cc1	-3.0%	·
CC1CCN(C(=O)c2ccc(NC(=O)C3CCCO3)cc2)CC1 (centres undefined)	9.1%	>57

Pulled by structure from the list above, 2 records:
SMILES	Anthrax LT inh	Prx2 Sm inh
Cc1cc(C)n(-c2nc3c(c(=O)[nH]c(=O)n3C)n2C(C)C)n1	8.4%	>57
CCOC(=O)CSc1nc(N)c(C#N)c(-c2ccc(OCC)cc2)c1C#N	?	>57

(continued)
SMILES	Anthrax LT inh	Prx2 Sm inh
Cc1nc2ccc(NC(=O)N3CCSCC3)cc2s1	10.4%	>57
CCN1CCN(/C=N/c2nc3c(s2)CCCC3)CC1	-2.8%	>57
c1ccc2c(c1)ncn2CCC1CCCCC1	-10.9%	>57
COc1ccc(CCN(C)C(=O)CN2C(=O)c3ccccc3S2(=O)=O)cc1OC	2.0%	>57
CCOC(=O)N1CCC(NC(=O)CS(=O)(=O)Cc2nc(-c3cccc(OC)c3)oc2C)CC1	-5.7%	>57
COCc1c(C(=O)OCC(=O)c2c(N)n(CC(C)C)c(=O)n(C)c2=O)oc2ccccc12	-29.1%	>57
Cc1nn(-c2ccccc2)c(Cl)c1C(=O)Nc1nnc(C2CCCC2)s1	-19.0%	>57
Cc1nc2cc(NC(=O)Nc3nccs3)ccc2n1C	-14.3%	>57
Cc1cc(NC(=O)c2noc3c2CCCC3)no1	6.3%	>57
COc1ccc(CNC(=O)CS(=O)Cc2nc(-c3ccccc3C)oc2C)cc1 (centres undefined)	-0.7%	>57
COC(=O)c1cn(CCOc2ccccc2)c2ccccc12	?	>57
CCS(=O)(=O)C(=C(Nc1ccc(OC)cc1)Nc1ccc(OC)cc1)S(=O)(=O)CC	10.8%	·
COc1ccc2cc(CCNC(=O)C3CCCC3)c(=O)[nH]c2c1	2.0%	>57
CN(C)CC/C=C1\c2ccccc2CSc2ccccc21	-1.6%[3.58 µM]	>57
Oc1c(Cl)cc(Cl)c(Cl)c1Cc1c(O)c(Cl)cc(Cl)c1Cl	?	·
CN(C)c1ccc(NC(=O)CSc2nc3c(c(=O)[nH]2)CCCC3)cc1	?	>57
Cc1cc2c(nc1C)CCCN2C[C@@H](O)CN1CCN(C)CC1	2.6%[1.6 µM]	·
Cc1cc(C)nc(/N=c2/ssnc2Cl)c1	?	·
COC(=O)[C@@H]1C[C@H]1[C@@H](NC(=O)c1cnccn1)c1ccccc1	?	>57
CCc1nnc(NC(=O)c2cccc(OC)c2)s1	-7.7%	·
CCC(C)NC(=O)CN(c1ccc(OC)cc1)S(=O)(=O)c1ccc(NC(C)=O)cc1 (centres undefined)	4.3%	>57
COc1ccc(N2CCN(S(=O)(=O)c3ccc(C(=O)NCc4ccco4)cc3)CC2)cc1	-3.5%	>57

Profiles from above. Order of values: Anthrax LT inh | Prx2 Sm inh
Entry for `CCOC(=O)N1CCN(C(=O)c2ccc(CNS(=O)(=O)c3ccc(OC)cc3)cc2)CC1` → 16.1% | >57
Entry for `N#Cc1c(SCC(=O)N2CCOCC2)nsc1SCC(=O)N1CCOCC1` → -7.4% | ·

Bioassay records (PubChem)

Not all compounds are listed, so the mix of outcomes need not match the whole.
